Assay outcomes: PubChem BioAssay, several laboratories
CSC inhib: cancer stem cell viability inhibitors, primary screen, luminescence | AID 2717, 2010 | cancer stem cell-like cells viability | inhibition, % at 7.5 µM | 1.1% of 300,000 active;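 active = mean at 75% or more and at least half the replicates too; tested in HMLE shEcad cells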;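 also: 0% = median of negative and 100% = median of positive control wells; the first replicate is given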
UUG fidelity: modulators of yeast start codon fidelity, primary screen, whole organism, S. cerevisiae, single point, plate reader | S. cerevisiae UUG-firefly luciferase reporter, luminescence/redox ratio | 0.13% of 350,000 active | activity score, % at 18.7 µM | AID 602363, 2012;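 active = replicate mean at a twofold rise or more, about +100% in these data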;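 also: firefly luciferase made from a UUG start codon reports start codon fidelity; reporter light over untreated wells divided by growth signal over untreated wells; some hits fall short of that in this replicate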
Env fusion inh: inhibitors of HIV-1 Env-driven cell-cell fusion, primary screen, HeLa-JRFL effector, CEM21 target cells, luciferase; inhibition, % at 12.3 µM; 1.1% of 360,000 active; AID 651610, 2012;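 active = mean replicate inhibition score of at least 50 and every replicate individually at or above 50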;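 also: 0% = plate neutral controls and 100% = maraviroc near 300 nM; one replicate is shown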
eIF4H FP inh: human eIF4H binding inhibitors, primary screen, translation initiation inhibitor project, biochemical, uHTS, fluorescence polarization; inhibition, % at 35 µM; AID 2012, 2009; 0.94% of 290,000 active; eIF4H fluorescence polarization binding assay;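 active = 50% or more with normal probe brightness, or confirmed in later tests; about a fifth of its hits are not listed in these tables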;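 also: calls also rest on retests at 20 µM and on dose response follow-up; 0% = protein and probe with vehicle and 100% = probe without protein; strong numbers were not always called active; many hits fall short of the cut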
Rce1 inh: yeast Rce1p protease inhibitors, primary screen, biochemical, fluorescence, cell-free homogeneous; AID 2563, 2010; calls only; yeast membranes, quenched prenylated peptide cleavage fluorescence; 0.27% of 290,000 active; CAAX prenyl protease 2 (Saccharomyces cerevisiae (strain ATCC 204508 / S288c)), Q03530;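 active = fall in fluorescence gain of 50% or more versus controls, with final raw signal at or below 3038400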;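 also: plate controls were neutral control wells for no effect and wells lacking membranes for full effect; tested at 10 µM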
PABP polyA inh: PABP poly(A) RNA binding inhibitors, primary screen, biochemical, fluorescence polarization, uHTS; inhibition, % at 35 µM; 1% of 290,000 active; AID 2014, 2009;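 active = 50% or more with normal probe brightness, or confirmed in later tests; about a fifth of its hits are not listed in these tables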;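 also: calls also rest on retests at 20 µM and on dose response follow-up; controls were probe without protein and protein plus probe with vehicle; some compounds called inactive have numbers as strong as hits; many hits fall short of the cut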
Target sequence (P11940 whole entry, looked up): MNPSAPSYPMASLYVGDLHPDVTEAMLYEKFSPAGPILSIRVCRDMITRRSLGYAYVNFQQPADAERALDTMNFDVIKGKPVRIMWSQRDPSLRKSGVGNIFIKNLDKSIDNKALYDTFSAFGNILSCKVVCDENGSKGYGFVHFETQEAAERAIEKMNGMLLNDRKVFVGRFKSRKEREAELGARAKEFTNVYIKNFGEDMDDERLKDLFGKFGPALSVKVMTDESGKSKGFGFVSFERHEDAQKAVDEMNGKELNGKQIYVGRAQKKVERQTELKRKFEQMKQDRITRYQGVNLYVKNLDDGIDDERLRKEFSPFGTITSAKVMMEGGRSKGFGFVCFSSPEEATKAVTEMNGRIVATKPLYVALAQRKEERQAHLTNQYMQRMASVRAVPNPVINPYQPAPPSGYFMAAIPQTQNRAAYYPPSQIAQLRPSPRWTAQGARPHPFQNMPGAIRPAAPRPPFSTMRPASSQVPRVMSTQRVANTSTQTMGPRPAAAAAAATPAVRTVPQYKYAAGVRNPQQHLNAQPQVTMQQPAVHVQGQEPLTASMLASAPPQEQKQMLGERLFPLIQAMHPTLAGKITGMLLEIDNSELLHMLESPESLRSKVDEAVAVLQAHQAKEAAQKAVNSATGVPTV
MT1-MMP act inh: blockers of MT1-MMP proenzyme processing, primary screen, HT1080 RFP-PRO-GFP cells, GFP/RFP fluorescence; Matrix metalloproteinase-14 (Homo sapiens), P50281; GFP/RFP ratio fluorescence, overnight; percent of plate control window, DMSO zero; GFP/RFP ratio change, % at 20 µM; 0.061% of 360,000 active; AID 651647, 2012;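 active = GFP/RFP ratio change of at least 30% with cell ATP level not reduced by more than half and red fluorescence within 50% of control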; also: strong numbers were not always called active
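Material: RFP-PRO-GFP reporter HT1080 cells. Dosing: single-point 20 µM compound, 1% DMSO. Controls: DMSO and RFP-L50D-GFP cell wells. Timing: cells overnight before dosing, compound overnight, 37 °C, 5% CO2. Measure: GFP/RFP fluorescence ratio.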
MT1-MMP act inh RFP: further read-out of MT1-MMP act inh, marked with its call; RFP signal change, %; measured here: RFP expression control read;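 0 = vehicle wells; hits needed this value within 50% of zero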
An asterisk follows results filed as active; i = inactive; . = no result given.

Compound	CSC inhib	UUG fidelity	Env fusion inh	eIF4H FP inh	Rce1 inh	PABP polyA inh	MT1-MMP act inh	MT1-MMP act inh RFP
COc1cccc(C(=O)N2CCCC(c3nc(-c4cccs4)no3)C2)c1 (stereo unspecified)	0.5	6.9	-3.9	-1.9	i	2.9	-1.3	-3.2
CN1CCN(c2ccc(NC(=O)COc3ccc4ccccc4c3)cc2)CC1	49.5	-4.3	-1.8	-3.3	i	-5.3	-0.5	1.5
Clc1ccc(-n2ncc3c(N4CCCCCC4)ncnc32)cc1	59.3	-61.8	-65.0	-11.9	i	10.5	-2.0	-7.6
Cc1ccc(S(=O)(=O)N2CCC(C(=O)N3CCN(c4ccccn4)CC3)CC2)cc1	-1.2	1.7	9.5	1.1	i	10.2	0.2	1.1
COc1ccc(C(=O)CSc2nnc(Cn3cnc4ccccc43)o2)cc1	.	-21.7	105.9*	-7.6	i	-5.1	11.4	-15.9
O=C(NCCN1CCOCC1)C(=O)NCc1ccco1	1.3	.	15.8	-1.9	i	3.1	-0.7	2.5
CN1[C@@H](COCc2ccccc2)C=CS1(=O)=O	.	-9.5	-1.3	.	.	.	4.5	5.1
CCn1c(=S)sc2c(=O)n(-c3ccccc3)c(SC)nc21	-1.8	-13.0	12.1	-8.0	i	-11.2	-2.1	-7.5
COc1ccc(CNC(=O)c2cccc(N3CCCC3=O)c2)cc1	-19.4	4.0	-51.4	-3.3	i	8.7	-5.8	-2.7
CCCNC(=O)c1ccc(N2CCC3(CC2)CC(c2ccccc2)=NO3)c(NC(=O)c2ccco2)c1	23.0	-15.3	27.8	-6.4	i	-5.7	-2.9	-3.4
CCc1nnc(N2C(=O)c3ccc(Oc4ccc([N+](=O)[O-])cc4)cc3C2=O)s1	14.9	.	13.6	-7.2	i	-9.0	5.9	1.0
CCOCCCNC(=O)CN1C(=O)CSc2ccc(S(=O)(=O)N3CCOCC3)cc21	3.8	-2.1	-3.2	-5.0	i	0.6	-0.4	2.7
COc1cc(NC(=O)c2cccnc2SC)cc(OC)c1	-6.8	0.5	-6.4	-3.3	i	6.4	0.2	1.1
COc1cccc(N2CCN(C3CC(=O)N(c4ccc(F)c(Cl)c4)C3=O)CC2)c1 (stereo unspecified)	.	-7.7	-0.6	-10.7	i	12.0	0.7	1.7
CCOc1ccc(NC(=O)NNC(=O)c2ccc(CC)s2)cc1	-11.9	.	-7.9	-5.4	i	-0.6	-5.2	-4.1
O=C(Cc1ccc(NC2=NC3CS(=O)(=O)CC3S2)cc1)NCc1ccccc1 (stereo unspecified)	-17.8	-19.2	7.8	-13.9	i	-11.1	4.8	5.1

Next part; it opens with the 3 that closed the last part.
Compound	CSC inhib	UUG fidelity	Env fusion inh	eIF4H FP inh	Rce1 inh	PABP polyA inh	MT1-MMP act inh	MT1-MMP act inh RFP
COc1cccc(N2CCN(C3CC(=O)N(c4ccc(F)c(Cl)c4)C3=O)CC2)c1 (stereo unspecified)	.	-7.7	-0.6	-10.7	i	12.0	0.7	1.7
CCOc1ccc(NC(=O)NNC(=O)c2ccc(CC)s2)cc1	-11.9	.	-7.9	-5.4	i	-0.6	-5.2	-4.1
O=C(Cc1ccc(NC2=NC3CS(=O)(=O)CC3S2)cc1)NCc1ccccc1 (stereo unspecified)	-17.8	-19.2	7.8	-13.9	i	-11.1	4.8	5.1
COc1ccccc1NS(=O)(=O)c1cc(NC(=O)c2cc[n+]([O-])cc2)ccc1N1CCCC1	-9.7	.	-5.0	3.4	i	14.1	-0.3	-2.9
COC(=O)Nc1ccc2c(c1)OCO2	-1.5	-20.4	-53.9	4.0	i	6.7	7.7	11.2
CCOC(=O)c1[nH]cnc1C(=O)Nc1ccc(Cl)cc1	6.4	.	-21.5	2.1	i	-13.0	1.1	2.1
Cc1ccc(CN2CCc3[nH]c(=O)[nH]c(=O)c3C2)cc1	7.5	-19.4	-6.9	-9.5	i	-2.8	-7.8	2.0
CCOc1ccc(C(C)NC(=O)c2ccc3c(c2)NC(=O)C(C)S3)cc1OCC (stereo unspecified)	.	1.4	-1.1	.	.	.	-4.6	0.0
CCCCC(=O)Nc1ccccc1Oc1ccccc1	-4.7	.	15.2	0.4	i	5.2	-3.8	-6.8
CC(C)Sc1nc(N2CCOCC2)c2c(c1C#N)CC(C)(C)SC2	40.6	-11.2	.	-12.7	i	-7.6	-10.7	-8.9
Cc1cccc(NC(=O)C2CCN(S(=O)(=O)c3ccc4c(c3)C(C)(C)C(=O)N4C)CC2)c1C	-7.4	-7.9	-20.4	2.9	i	-2.6	-0.3	0.3
CN(CCO)c1ccc(-c2nn(C)c(=O)c3ccccc23)cc1[N+](=O)[O-]	-8.3	.	5.1	4.5	i	-0.2	3.7	2.0
COc1ccc(NC(=O)Cn2nc(C)c3ccccc3c2=O)cc1	.	-12.7	7.1	3.0	i	13.8	4.1	4.4
COc1ccccc1-c1cc2nc(C)cc(C)n2n1	-7.4	-14.9	-6.4	-5.8	i	3.3	0.4	-0.7
COc1cc(/C=N/NC(=O)c2cc3ccccc3[nH]2)ccc1O	12.5	-6.1	17.0	4.6	i	-4.2	5.1	2.4
COC(=O)N=Nc1c(O)n(Cc2ccccc2)c2ccccc12	-0.5	0.6	17.6	3.5	i	-3.8	2.3	-3.1
CCc1cc(C(=O)N2CCCC(CCC(=O)NCc3cccc(OC)c3)C2)no1 (stereo unspecified)	-7.0	.	6.7	-2.8	i	-1.6	1.3	3.1
COc1ccc(OCCNC(=O)c2ccc3nc(C)c(N(C)C(=O)CCc4ccccc4)n3c2)cc1	.	15.9	-1.5	.	.	.	-4.1	-4.1
Cn1ncc(Br)c1C(=O)O	-1.8	.	-20.9	-15.5	i	-0.1	-2.6	5.3
CCCCN1CC(O)=C(c2nc(-c3ccc(Br)cc3)cs2)C1=N	0.0	-15.1	-9.3	32.9	i	6.6	-0.5	0.2
OC[C@H]1O[C@@H](c2nc(-c3cccc4ccccc34)no2)[C@H](O)[C@@H]1O	.	-3.3	-12.6	.	.	.	-8.2	0.9
O=C(Cc1csc(Nc2nc(=S)[nH]c3ccccc23)n1)N1CCN(c2cccc(Cl)c2)CC1	12.4	-26.3	13.2	-2.7	i	-1.9	-1.3	-1.9
CCN(CC)C(=O)C1=C(C)N(Cc2ccc(F)cc2)C(=O)C(CC(=O)NCCN2CCOCC2)C1 (stereo unspecified)	.	-8.8	-6.8	.	.	.	2.7	4.8
O=C(NC(=S)Nc1nc(-c2ccc(Br)cc2)cs1)c1ccco1	-4.6	.	-18.4	1.6	.	-0.1	8.5	6.2
O=C(CS(=O)CC(=O)N(CC(=O)NC1CCCC1)C1CCCC1)Nc1ccc(F)cc1 (stereo unspecified)	-6.9	-12.9	-41.8	5.3	i	-3.5	-0.9	0.4
COc1ccccc1N1C(=O)C=C(Sc2nc(C)cc(C)n2)C1=O	13.4	-20.1	8.6	-11.6	i	5.1	19.8	22.5
COc1ccc(NC(=O)C[C@H]2C(=O)N(c3ccc(Br)cc3)C[C@@H]2c2ccc(OC)cc2)cc1	.	-8.7	-35.5	.	.	.	-4.8	-5.2
COc1ccc(C)cc1NC(=O)c1ccc2c(O)c(S(=O)(=O)c3ccccc3)c(=O)[nH]c2c1	-1.3	-9.7	-3.5	10.2	i	28.1	1.2	2.3
CN(C)CCCNC(=O)c1ccc(Cl)c(S(=O)(=O)N2CCCCCC2)c1	27.3	7.2	-3.1	.	.	.	2.2	-1.5
c1cc(-c2nnn(CCOCCn3nnc(-c4ccncc4)n3)n2)ccn1	-15.0	-3.5	12.2	6.7	i	6.2	-2.4	1.4
COc1ccc(CCN2CC(C(=O)NCCc3ccccc3C(F)(F)F)CCC2=O)cc1 (stereo unspecified)	-21.1	.	-25.4	-9.7	i	-5.5	-0.6	-0.8
Cc1[nH]n(-c2ccccc2)c(=O)c1/C=N/NC(=O)c1cccc(F)c1	49.0	-12.0	19.8	9.4	i	-8.1	4.4	-5.1
O=C(CCCN1C(=O)/C(=C\c2ccccc2)SC1=S)Nc1cccc(C(=O)O)c1	.	1.7	4.2	-0.3	i	12.0	0.1	2.0
COc1ccc(C2SCC(=O)N2c2c(C)n(C)n(-c3ccccc3)c2=O)cc1OC (stereo unspecified)	-8.8	25.7	-86.7	0.6	i	-13.6	3.0	5.2
COc1ccc(CC(=O)NNc2ncnc3c2cnn3-c2ccccc2)cc1	-18.1	.	-0.2	3.8	i	2.9	-2.6	0.2
Cc1ccc(C)c(N2CCN(c3ncnc4c3cnn4-c3ccccc3)CC2)c1	.	-13.1	26.3	-0.1	.	0.8	-1.4	-9.0
CCN(CC)C(=O)CC(c1ccc2c(c1)OCO2)c1c(O)cc(OC)cc1OC (stereo unspecified)	3.5	-4.1	-0.3	-16.0	i	-4.4	-2.5	-0.3
CCc1ccccc1NC(=O)[C@@H]1CCC(=O)N1C1OC(=O)c2c1ccc(OC)c2OC (stereo partly specified)	0.9	-17.4	.	-3.3	i	5.5	0.6	3.7
Cc1cc(=O)oc(C)c1C(=O)NCCc1ccccc1	1.0	.	.	3.4	i	1.8	-5.0	7.4
S=c1[nH]nc2n1CCCN2	-18.2	.	-2.9	-12.8	i	7.2	2.2	7.0
Cn1c(=O)c2c(nc(N3CCOCC3)n2CC(=O)C23CC4CC(CC(C4)C2)C3)n(C)c1=O	-7.5	5.8	-68.2	-10.4	i	-5.2	9.0	0.5
CCCCN(CCCC)CCNC(=O)c1cn(CC)c2ccc(S(=O)(=O)N3CCc4ccccc4C3)cc2c1=O	-0.4	-23.6	6.3	-4.0	i	-6.0	0.6	-5.3
COc1cccc(C(=O)Nc2ccc(N3CCN(Cc4ccccc4)CC3)cc2)c1	-1.2	-27.1	-26.0	-7.2	i	-3.3	1.1	-5.0
COC(=O)COc1ccc(-c2ccc(F)cc2)cc1C=O	7.5	.	-3.6	-1.6	i	-12.9	5.6	6.5
CC(C)(C)NC(=O)C(c1ccc(Cl)cc1)N(Cc1ccco1)C(=O)CCl (stereo unspecified)	-9.3	-11.8	-195.1	4.6	i	-1.3	-1.1	0.1
CCC(=O)N(c1ccc(F)cc1)C1C=CS(=O)(=O)C1 (stereo unspecified)	-0.2	-5.1	7.0	1.7	i	-8.8	-7.2	-4.1
O=C(NCC(=O)N1CCN(c2ncccn2)CC1)c1ccc(F)cc1	6.8	-22.1	40.7	.	.	.	1.8	4.7
COc1ccc(CCn2c(N)c(C(=O)NCc3ccco3)c3nc4ccccc4nc32)cc1OC	.	-16.4	35.9	-9.0	i	9.1	-18.4	2.7
O=C1C(=O)N(CCCO)C(c2ccc(Br)cc2)/C1=C(\O)c1ccc(Br)cc1 (stereo unspecified)	-4.0	-18.5	-23.0	0.9	i	12.2	-3.3	2.7
COc1c(Cl)cc(Cl)cc1CNc1ccc(S(N)(=O)=O)cc1	-10.7	.	10.3	-4.3	i	10.5	0.3	-3.0
COCCCn1cnnc1SC(C)C(=O)Nc1ccc(S(=O)(=O)N2CCOCC2)cc1 (stereo unspecified)	-7.7	-4.9	-6.8	.	.	.	-3.2	-1.4

The order is random; overall some 2.9% were active at least once.
